# Bfl-1 A1 inh: caspase 3/7 activation in MEF A1-2A-BIM cells, primary screen, A1 inhibitor project, cell-based, luminescence, HTS | Caspase-Glo 3/7 luminescence, 3 h; percent of clofoctol response, vehicle zero | caspase activation, % (no concentration beside the values) | hit rate 0.066% among 330,000 | AID 2462, 2010;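 active = over half of replicate activation scores above 10%, or exactly half above 10 with the replicate mean above 10; inconclusive = replicate mean below 10 yet half the replicates above 10; inactive = over half of replicates below 10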;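 note: wells of about 30 µL received 50 nL stock; many hits fall short of the cut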
# RanGTP-Impb inh: inhibitors of RanGTP-importin-beta interaction, primary screen, biochemical, FRET, CFP-Ran, YFP-importin-beta, homogeneous; Ran GTPase (GTP-bound) - importin-beta complex; hit rate 1.1% among 300,000; inhibition, % (test concentration not listed); cell-free CFP-Ran/YFP-importin-beta FRET ratio; AID 2216, 2009;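 active = most replicates above 15%; inconclusive = exactly half above 15%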;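 note: 0% = DMSO wells and 100% = Ran loaded with GDP instead of GTP; wells of about 40 µL received 100 nL stock; the first replicate is given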
# LANA-H2A inh: blockers of LANA interaction with H2A/H2B – biochemical, FP readout, HTS, primary screen. Protein LANA1 (Human herpesvirus 8 type P (isolate GK18)), Q9QR71. cell-free LANA-H2A/H2B peptide, fluorescence polarization. inhibition, % (test concentration not listed). hit rate 0.6% among 320,000. AID 2629, 2010; in the data active = inhibition mostly above about 10%, no sharp cut-off; inactive = mostly below about 6.7%;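 note: stock transfer was 7.5 nL into about 10 µL; 0% = median of vehicle wells and 100% = median of positive control wells; one replicate is shown; the record names a cut of 25% in any replicate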
# Beta2AR agonist: beta2AR agonists driving receptor internalization, primary screen, cell-based, FAP fluorogen, flow cytometry; Beta-2 adrenergic receptor (Homo sapiens), P07550; Am2.2-beta2AR cells; reference of the scale not given here; response, % (concentration not given with the values); hit rate 0.43% among 340,000; AID 504454, 2011;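 active = response above a set limit, near 3 SD of response in nonfluorescent compounds, cut at about 42% in these data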;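 note: stock transfer was 100 nL into about 11 µL; a reference agonist was the positive control; negative values mostly stem from fluorescent compounds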
# Target sequence (P07550 whole entry, looked up): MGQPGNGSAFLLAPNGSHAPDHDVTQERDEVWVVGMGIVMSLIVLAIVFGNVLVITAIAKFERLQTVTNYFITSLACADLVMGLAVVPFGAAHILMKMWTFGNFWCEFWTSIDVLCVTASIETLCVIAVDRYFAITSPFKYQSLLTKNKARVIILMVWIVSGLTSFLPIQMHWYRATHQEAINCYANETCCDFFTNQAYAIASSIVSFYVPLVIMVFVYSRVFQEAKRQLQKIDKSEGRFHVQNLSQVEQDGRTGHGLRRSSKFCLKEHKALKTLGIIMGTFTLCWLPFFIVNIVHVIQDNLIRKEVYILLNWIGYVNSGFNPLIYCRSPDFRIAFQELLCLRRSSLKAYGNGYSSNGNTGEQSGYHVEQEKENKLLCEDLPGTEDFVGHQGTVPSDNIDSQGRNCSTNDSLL
# Beta cell apopt: inhibitors of cytokine-induced beta cell apoptosis, primary screen, luminescence. AID 435005, 2010. protection from apoptosis, % (no concentration beside the values). hit rate 0.8% among 300,000. INS-1E cytokine-induced death, ATP luminescence, 48 h; percent of positive-control rescue, neutral wells zero;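 active = all replicates at 75% or more, or half of them and the mean; inconclusive = half reach 75% but not the mean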;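 note: 0% = cytokine-treated negative control wells and 100% = positive control rescue; higher means more ATP so stronger rescue from cytokine killing; wells of about 40 µL received 100 nL stock; the first replicate is given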
# UCH37 DUB inh: inhibitors of human UCH37 deubiquitinase, primary screen, biochemical, Ub-AMC cleavage, fluorescence | AID 588478, 2011 | hit rate 0.33% among 330,000 | purified proteasome/UCH37 | inhibition, % (concentration not given with the values);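 active = mean of two replicates above 20%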;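 note: 0% = compound-free wells with enzyme and 100% = wells lacking proteasome; stock transfer was 100 nL into about 20 µL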
# Target sequence (Q9Y5K5 whole entry, looked up): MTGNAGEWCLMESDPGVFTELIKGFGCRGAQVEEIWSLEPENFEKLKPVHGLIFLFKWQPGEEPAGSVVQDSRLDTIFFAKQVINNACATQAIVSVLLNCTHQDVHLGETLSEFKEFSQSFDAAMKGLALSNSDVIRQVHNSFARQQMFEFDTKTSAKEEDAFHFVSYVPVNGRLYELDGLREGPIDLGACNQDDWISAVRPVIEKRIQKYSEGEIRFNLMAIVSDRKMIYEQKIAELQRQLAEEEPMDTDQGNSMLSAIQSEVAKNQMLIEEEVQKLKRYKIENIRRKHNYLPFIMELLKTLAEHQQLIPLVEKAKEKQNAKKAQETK
#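 assay system = human UCH37 enzyme supplied as purified proteasome complex | amount = proteasome at 0.15 nM in the dispensed enzyme solution | schedule = 30 min compound-proteasome preincubation then 25 min substrate reaction, room temperature | measured by = fluorescence, ex 355 nm, em 460 nm | benchmarks = no-proteasome wells (full inhibition) and compound-free wells (no inhibition)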
# Calb FLC: C. albicans growth inhibition with fluconazole, primary screen, CaCi-2 strain, Alamar Blue fluorescence; growth inhibition, % (no concentration beside the values); hit rate 0.57% among 300,000; C. albicans CaCi-2 (fluconazole-resistant clinical isolate) + fluconazole, 48 h;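 active = most replicates above 75%; inconclusive = exactly half above 75%; inactive = most below 75%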;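 note: all wells also contain fluconazole at 8 µg/ml as a sub-toxic cotreatment; 0% = median of DMSO wells and 100% = median of geldanamycin control wells; wells of about 8 µL received 7.5 nL stock; the first replicate is given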
# T cruzi inh: inhibitors of intracellular T. cruzi growth, primary screen, luminescence, NIH3T3 host cells; T. cruzi beta-gal in NIH3T3, 90 h; inhibition, % (test concentration not listed); hit rate 1.4% among 300,000; AID 1885, 2009;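 active = mean inhibition across valid replicates above about 55%, limit read from the data; inconclusive = mean below that limit but half or more replicates reach it; inactive = mean below it, under half of replicates reach it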;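 note: signal also drops with host cell toxicity which is not excluded here; 0% = plate median of DMSO wells and 100% = zero luminescence signal; higher percent means less beta-gal luminescence so fewer parasites; stock transfer was 50 nL into about 50 µL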
# Starred values were filed as active, the others as inactive; ? = inconclusive; . = no result given. Rows were taken by chance (roughly 4.3% active in at least one column).
cpd	SMILES	T cruzi inh	RanGTP-Impb inh	UCH37 DUB inh	Beta2AR agonist	Beta cell apopt	LANA-H2A inh	Bfl-1 A1 inh	Calb FLC
1	O=C1N[C@H](Cc2ccccc2)COC(=O)[C@@H](Cc2ccc(F)cc2)CC/C=C/C[C@H]1CC(=O)N(CCO)Cc1ccccc1	.	.	22.2*	5.5	0.2	1.2	-1.2	.
2	COc1ccc(-c2nc(-c3cccs3)no2)cc1	-2.6	1.2	2.9	-9.2	2.9	3.5	-7.4	-2.2
3	CC1=C(CC(=O)O)c2cc(F)ccc2/C1=C/c1ccc(S(C)=O)cc1 (stereo unspecified)	1.5	9.1	1.4	1.7	2.5	0.7	-0.2	14.3
4	COc1cc2[nH]c(=O)c(C(=O)NCCCN3CCOCC3)c(O)c2cc1OC	5.7	-1.7	.	0.6	1.3	-0.5	-0.3	14.1
5	O=C(CCNC(=O)c1ccc([N+](=O)[O-])cc1)Oc1ccc(F)c(F)c1	.	.	3.2	6.3	3.8	-5.1	1.1	.
6	COC(=O)c1cc(NC(=O)Cc2coc3cc(OC)ccc23)cc(C(=O)OC)c1	5.5	-1.4	1.3	-1.9	1.4	-3.2	0.1	-7.8
7	NC(=O)c1nc(C2CCCCC2)nc2c1[nH]c(=O)n2-c1ccc(F)cc1	7.9	2.0	-6.7	-11.6	-4.6	-0.1	-0.2	-1.6
8	Cc1cccc(C)c1NC(=O)COC(=O)c1ccc2c(c1)OCO2	-10.8	-2.7	0.7	-2.7	1.3	1.0	-0.3	-4.0
9	CCOC(=O)c1[nH]cnc1C(=O)Nc1cccc(OC)c1	-10.9	-0.7	3.1	4.6	10.3	-2.0	-0.6	3.8
10	N#CCCN(C(=O)COC(=O)c1ccc2c(c1)OCO2)c1ccccc1	.	.	3.7	2.1	0.4	-0.2	-0.2	.
11	CCOC(=O)C1=C(N)OC2=C(C(=O)CCC2)C1c1sccc1C (stereo unspecified)	-16.9	23.2*	6.5	-3.9	-0.7	-2.6	0.7	-12.0
12	CCCCc1nnc(NC(=O)C(=O)OCC)s1	-13.8	9.3	1.1	3.0	-1.6	6.2	1.0	-6.5
13	Clc1cc2c(c(CSc3nc4ccccc4n4cccc34)c1)OCOC2	1.0	1.2	-10.3	-1.6	-1.9	0.4	0.9	.
14	N#CCCN(C(=O)CSc1ncccn1)c1ccc2c(c1)OCCO2	.	.	0.5	-9.4	-0.4	-2.0	1.6	.
15	O=C(COC(=O)CNC(=O)c1cccc(OC(F)F)c1)NNC(=O)c1ccccc1	.	.	5.7	1.1	0.1	5.0	-0.8	.
16	O=C(NC(=S)Nc1ccccc1N1CCCC1)c1ccco1	-8.4	-6.7	.	6.3	-1.5	1.1	0.2	-10.5
17	CCOc1ccc(/C=N/NC(=O)c2c(C)n(C)c3ccc(OC)cc23)cc1	7.2	-6.1	.	-5.0	7.7	-4.6	-0.6	17.1
18	Cc1noc(NS(=O)(=O)c2ccc(NC(=O)c3ccc(OC(C)C)cc3)cc2)c1C	-16.2	2.3	3.5	3.1	-13.0	2.8	0.1	-3.3
19	O=C(CCCCCn1c(SCC(=O)c2ccccc2)nc2ccccc2c1=O)NCc1ccco1	14.8	?	3.2	9.5	-1.0	-0.7	-0.3	-30.7
20	O=C(COC(=O)c1ccccc1NC(=O)c1ccco1)NC1CCS(=O)(=O)C1 (stereo unspecified)	2.9	7.2	-0.1	2.5	-3.6	1.9	0.2	-2.5
21	O=C(c1ccccc1)c1ccccn1	0.1	-3.2	0.3	-2.6	-8.6	6.6	1.5	-10.3
22	COc1ccccc1OCCCCn1c(C(C)O)nc2ccccc21 (stereo unspecified)	-4.7	1.7	1.5	-0.8	-5.3	4.1	?	-3.0
23	Cc1cc(C)c2nncn2n1	-1.5	-2.1	4.1	-6.2	-1.9	-2.6	-0.3	-5.7
24	CC1CCCCN1CCCn1c(=S)[nH]c2ccccc2c1=O (stereo unspecified)	0.9	1.9	4.2	-0.3	-5.0	-4.1	-0.4	-10.8
25	Cc1ccc(C(=O)Nn2cnc3ccccc3c2=O)cc1C	6.9	-1.4	1.9	6.9	-0.4	-1.0	1.3	11.3
26	COc1ccc(NC(=O)C2CC(=O)N(Cc3ccco3)C2)cc1Cl (stereo unspecified)	.	.	1.1	-1.6	-2.4	2.8	-0.7	.
27	CN(C)S(=O)(=O)Oc1cccc(C(=O)Nc2ccc([N+](=O)[O-])cc2)c1	9.0	0.1	4.7	-3.2	.	1.4	-0.5	-1.4
28	O=C(NC(=S)NCC1CCCO1)c1ccc(Cl)cc1 (stereo unspecified)	-8.4	0.7	5.1	-13.8	-3.6	0.1	-0.4	-4.1
29	COc1ccc(N2CC(C(=O)Nc3ccc(S(=O)(=O)N4CCCCC4)cc3)CC2=O)cc1 (stereo unspecified)	6.9	?	-0.7	1.2	.	1.6	0.5	-8.8
30	Cc1ccc(C)c(-n2nnnc2SCC(=O)NCC2CCCO2)c1 (stereo unspecified)	.	.	-2.6	0.3	-3.0	0.6	0.5	.
31	COC(=O)CN(c1cccc(OC)c1)S(C)(=O)=O	-13.9	0.1	0.6	1.8	-2.3	-2.1	-1.2	-1.3
32	O=C(CCc1nnc(-c2ccc3c(c2)OCO3)o1)N1CCC(c2ccc(F)cc2)C1 (stereo unspecified)	7.5	-0.4	-1.8	-14.2	-2.9	1.8	-0.6	-4.9
33	O=C1CCc2cc(NS(=O)(=O)c3ccccc3)cc3c2N1CCC3	-13.9	2.1	2.5	3.5	2.0	-0.4	-0.6	8.0
34	COc1ccc(-n2c(=O)c3c4c(sc3n3c(=S)[nH]nc23)COC(C(C)C)C4)cc1 (stereo unspecified)	-22.1	0.6	5.7	4.8	-2.0	0.1	-0.3	-4.1
35	COc1nn(-c2ccccc2)c(=O)c(Cl)c1Cl	53.5	3.0	7.2	35.8	-8.2	2.4	2.9	41.1
36	Cc1c(NC(=O)CC(C)C)c(=O)n(-c2ccccc2)n1C	-4.3	1.1	.	-0.6	-4.7	0.5	-1.6	7.7
37	Cc1cnc(NC(=O)C2COc3ccccc3O2)s1 (stereo unspecified)	3.4	-4.2	1.5	-4.4	-15.5	0.0	-6.2	-14.7
38	Cc1nn(C)c(Cl)c1CN1CCN(C2CCCCC2)C(CCO)C1 (stereo unspecified)	-3.6	4.2	1.0	-3.0	-1.3	4.2	0.4	3.8
39	COc1cc(/C=N/NC(=O)c2ccc3c(c2)OCCO3)cc(Br)c1O	-10.8	4.7	.	3.0	.	.	.	8.2
40	Cc1cc2nccc(-c3ccc(F)cc3)n2n1	-0.8	-6.0	-2.5	-4.5	-3.0	-2.1	0.6	-3.5
41	Cc1ccc(C(=O)NCCc2nnc3ccc(SCC(=O)Nc4ccccc4F)nn23)cc1	14.4	1.0	-0.1	-11.8	-5.2	3.3	0.1	4.8
42	O=C(c1cccs1)N1CCN(CCc2ccccc2)CC1	-2.0	3.3	2.9	0.7	-1.8	8.5	0.2	-16.1
43	Cc1cc(=O)n2[nH]c(COc3ccccc3)nc2n1	-19.3	2.9	-1.6	-5.6	.	-1.5	0.0	0.1
44	Cc1ccc(/C=N/n2c(-c3ccccn3)n[nH]c2=S)o1	-16.8	-1.8	.	-3.2	1.6	-4.4	0.3	-2.2
45	COCCNC(=O)CNS(=O)(=O)c1ccc2nc(C)sc2c1	-16.3	-0.3	1.6	-2.6	-2.6	4.7	0.5	21.0
46	CCc1c(C)nc2ncnn2c1NCCc1ccc(OC)cc1	-37.3	-0.2	-0.8	-8.4	97.2*	-1.9	0.3	5.5
47	CC(=O)c1ccc(OCC(=O)N(C2CCCCC2)C2CCS(=O)(=O)C2)cc1 (stereo unspecified)	3.4	.	0.4	-28.9	-3.1	1.2	-0.2	-4.2
48	CCOc1ccc(C(=O)Nc2nc3ccccc3[nH]2)cc1OCC	17.6	-2.0	1.3	-5.1	24.1	2.5	-0.7	7.7
49	COc1cc(OC)cc(C(=O)OCC(=O)Nc2cccc(C(C)=O)c2)c1	-17.8	-0.5	-0.4	1.1	.	-1.0	0.8	-9.3
50	C=CCC(=O)N(CC)CC1CCCN(CCc2cccc(F)c2)C1 (stereo unspecified)	39.7	1.3	4.0	-4.6	.	2.7	0.1	-5.5

# Continuation.
cpd	SMILES	T cruzi inh	RanGTP-Impb inh	UCH37 DUB inh	Beta2AR agonist	Beta cell apopt	LANA-H2A inh	Bfl-1 A1 inh	Calb FLC
51	COc1ccc(/C=C2\C(=O)N(Cc3ccc(F)cc3)CC(=O)N2Cc2ccccc2)cc1	2.4	2.4	-2.3	3.0	4.1	-7.3	0.3	25.5
52	COC(=O)c1ccc(CN2CCN(Cc3ccc(F)cc3)C(CCO)C2)cc1 (stereo unspecified)	13.4	?	2.0	3.7	-0.6	-6.8	0.9	0.4
53	CCC(C)NC(=O)C1CCCN(c2nc(C)cc(OC)n2)C1 (stereo unspecified)	-1.2	1.3	2.4	1.4	5.8	5.2	0.3	-1.7
54	Cn1c(=O)c(C(=O)NCC2CCCO2)c(O)c2ccccc21 (stereo unspecified)	1.7	3.2	-0.6	-7.9	-1.6	-0.5	-0.6	28.9
55	Cc1cc(=O)n2c(n1)NC(Nc1cccc(C)c1C)=NC2c1ccccc1 (stereo unspecified)	-2.2	1.9	2.6	1.6	-2.1	1.7	0.2	-21.7
56	O=C(CSc1nnc(CNC(=O)c2ccccc2F)o1)NCc1ccccc1	-3.8	-1.5	-2.6	3.0	-5.8	-6.8	1.1	10.5
57	COC(=O)Nc1ccc(=O)n(Cc2c(Cl)cccc2Cl)c1	-7.6	1.9	-26.6	-0.7	-5.8	-2.2	0.4	59.2
58	O=C(NNc1c2ccccc2nc2ccccc12)c1cc2ccccc2cc1O	47.2	46.1*	8.1	33.7	49.8	-3.3	-0.3	-17.3
59	COc1ccccc1N(CC(O)CN1C(=O)NC(C)(C)C1=O)S(=O)(=O)c1ccc(C)cc1 (stereo unspecified)	4.1	1.1	-0.4	-0.1	-1.9	-14.3	-0.9	0.6
60	Cn1c(N)c(C(=O)COC(=O)CCC(=O)c2ccc(F)cc2)c(=O)n(C)c1=O	-2.0	3.8	2.5	2.6	-6.1	-4.5	1.1	-9.9
61	NCC(c1ccccc1Cl)c1c[nH]c2ccccc12 (stereo unspecified)	-7.3	3.8	2.0	8.0	-0.3	-0.5	0.3	3.5
62	N#Cc1cccc(NC(=O)c2ccccc2C(=O)O)c1	-7.2	9.2	1.1	-8.6	5.1	-4.3	0.2	25.5
63	Fc1ccc(-c2nc3ccccc3[nH]2)cc1	-8.0	-2.1	-1.8	3.5	14.7	0.5	-8.1	13.3
64	Cc1ccc(C(=O)Nc2cccc(C(F)(F)F)c2)cc1NC(=O)c1cnnc2ccccc12	-9.7	8.4	4.0	5.8	22.8	3.3	-0.5	-1.5

# Assay outcomes (PubChem)
